Bioassay records as filed in PubChem.
HPGD block: blocks human HPGD enzyme activity. purified HPGD, NADH fluorescence kinetic, PGE2 substrate. 4.3% of 150,000 active. Potency, µM, for the others: top-dose activity change, negative = inhibition, actives largely listed as inhibitors; active = well fitted inhibition curve with a large enough effect (not every such curve was filed as active); inconclusive = small, poorly fitted or top-dose-only effect, or another doubt; inactive = no such curve, though single readings can be large or run the other way;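 also: top concentration of the series not given in the record; plate controls included wells without enzyme; inactives centre near -10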
Target sequence (P15428 whole entry, looked up): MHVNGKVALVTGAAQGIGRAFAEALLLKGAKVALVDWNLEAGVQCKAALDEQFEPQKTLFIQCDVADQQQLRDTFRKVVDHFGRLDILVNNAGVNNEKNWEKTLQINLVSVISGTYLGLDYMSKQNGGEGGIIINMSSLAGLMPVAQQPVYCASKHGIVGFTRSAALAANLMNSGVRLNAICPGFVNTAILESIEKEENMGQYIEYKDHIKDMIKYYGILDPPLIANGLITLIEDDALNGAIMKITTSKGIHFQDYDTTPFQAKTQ
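20 nM HPGD preincubated 15 min at room temperature with compound in 50 mM Tris-HCl pH 8, 0.01% Tween 20. Started with 1 mM NAD+ and 30 uM prostaglandin E2; NADH fluorescence (360/450 nm) read 5 times over 30-s intervals, last minus first.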
Active calls of the source: *; ? = inconclusive. % is scaled to controls: 0 for no effect and ±100 for the full control effect; potency is read from the fitted curve at half-maximal effect.

HPGD block | canonical_smiles
-7% | Cc1cccc(C)c1NC(=O)/C(C#N)=C/c1cccs1
-11% | C=CCc1c(C)c(C#N)c2nc3ccccc3n2c1NCCN(C)C
-19% | CCOC(=O)C1CN(C(C)(C)C)C(=O)C1=O (centres undefined)
-29% | O=c1c2cc(N3CCOCC3)ccc2[nH]c(=S)n1CCCN1CCN(c2ccccc2F)CC1
-16% | CNS(=O)(=O)c1ccc(NC(=O)c2ccccn2)cc1
-11% | Nc1c(C(=O)NCc2ccccc2)nnn1Cc1ccccc1
-19% | O=C(COc1ccc(C(=O)c2ccccc2)cc1)NCC1CCCCC1
-8% | NS(=O)(=O)c1cccc(NC(=O)CSc2ccccn2)c1
-29% | CC(=O)NC(NC(=S)Nc1ccc(N=Nc2ccccc2)cc1)C(Cl)(Cl)Cl (centres undefined)
-9% | Cc1ccc(C(C(=O)NC(C)(C)C)N(CC2CCCO2)C(=O)Cn2nnc(-c3ccc(C)o3)n2)cc1 (centres undefined)
-24% | COc1ccc(OCCNC(=O)c2ccccc2OCC(=O)Nc2ccc(NC(C)=O)cc2)cc1
-9% | O=C(OCc1ccccc1)[C@@H]1COC(c2ccc(Br)cc2)=N1
? | CCc1ccc(-c2cc(C(F)(F)F)n3nc(C(=O)Nc4cnn(Cc5ccccc5C)c4)cc3n2)s1
? | Cc1ccc(OCCN2CCN(CC(O)Cn3c4ccccc4c4ccccc43)CC2)cc1 (centres undefined)
3% | COc1ccc(OC)c(NS(=O)(=O)c2ccc3c(c2)CCC(=O)N3)c1
-3% | COc1ccc(-n2c(Cc3cccn3C)nnc2SCC(=O)N2CCC(C)CC2)cc1
-16% | O=S(=O)(c1ccc(Cl)cc1)N1CCCC1c1nc(-c2ccc(Cl)cc2)no1 (centres undefined)
-4% | O=C(CCCc1nc(-c2ccccc2)no1)Nc1cccnc1
-13% | CCCCc1ccc(N=N/C(C(=O)Nc2ccc(NC(C)=O)cc2OC)=C(/C)O)cc1
-15% | CCN(CC)S(=O)(=O)c1cc(NC(=O)CSc2nnc(-c3cccs3)o2)ccc1C
? | CC(=O)Nc1ccc(Oc2cc(C#N)c(C#N)cc2N2CCOCC2)cc1
-11% | CCCN(c1ccc(C(C)C)cc1)S(=O)(=O)c1c(C)noc1C
-1% | O=c1ccnc(SCc2ccc(Cl)cc2)[nH]1
-12% | COc1ccc(B(O)O)cc1
? | CCc1ccc(NC(=O)COc2ccc(/C=C(/C#N)c3nc4ccccc4[nH]3)cc2OC)cc1
-21% | Cc1cccc(NS(=O)(=O)c2ccc3c(c2)Cc2cc(S(=O)(=O)Nc4cccc(C)c4C)ccc2-3)c1C
-6% | CCOC(=O)c1c(NC(=O)CSc2nncs2)sc(C)c1-c1ccccc1
-16% | CCNC(=O)/C(=C\c1ccccc1)NC(=O)/C=C/c1ccccc1
-10% | CN(C)CCNc1oc(COc2ccc(Cl)cc2Cl)nc1C#N
-9% | C=CCn1c(=O)c(C(=O)NCCc2ccccc2)c(O)c2ccccc21
-13% | CCOC(=O)C1=C(N)OC2=C(C(=O)CCC2)C1c1cccnc1 (centres undefined)
-12% | CCC(=C(c1ccc(OC)cc1)c1ccc(OC)cc1)c1cn(CC(O)CN2CCN(C)CC2)c2ccccc12 (centres undefined)
-17% | Cc1noc(C)c1CSc1cc(C)c2ccccc2n1
-18% | O=C(O)CCCCn1c(SCC(=O)Nc2ccccc2C(F)(F)F)nc2ccsc2c1=O
-6% | CCOC(=O)c1nnn(-c2nonc2N)c1-c1ccccc1
-5% | CCCCC(CC)COP(=O)(OCC(CC)CCCC)OCC(CC)CCCC (centres undefined)
-7% | O=C(O)c1ccccc1CSc1ncn[nH]1
-2% | CS(=O)(=O)c1nc(-c2ccc(Br)cc2)cc(-c2ccccc2)c1C#N
-17% | CCCOc1ccc(C(CC(=O)O)NS(=O)(=O)c2ccc(NC(C)=O)cc2)cc1 (centres undefined)
-15% | COc1ccc(NC(=O)C2CCN(c3cc(C)nc(-c4ccccc4)n3)CC2)cc1
-21% | COc1cccc(-c2csc(N3CCN(C(=S)Nc4ccc(Cl)cc4)CC3)n2)c1
-16% | O=C(/C=C/c1ccccc1)NCCSc1ccc(Cl)cc1
? | CCCN(CCC)S(=O)(=O)c1ccc(C(=O)Nc2nc3c(s2)CCc2ccccc2-3)cc1
-5% | CCN(CC)C(=O)CN(c1cc2c(cc1OC)oc1ccccc12)S(=O)(=O)c1ccccc1
-8% | CCCCC(O)(C(NC=O)C(=O)OC)C(F)(F)F (centres undefined)
-10% | CN(CCc1ccccn1)Cc1ccc(Cl)cc1Cl
-3% | CCOC(=O)Cn1c2c(c(=N)c3c1CCC3)CCCC2
? | COc1ccc(OC)c(NC(=O)[C@@H]2CCCN2C(=O)c2cccs2)c1
-10% | Cc1cc(C)c2c(=O)[nH]c(SCC(=O)c3ccc(C(C)C)cc3)nc2n1
-12% | CCOC(=O)N1CCC(NC(=O)C2CCN(S(=O)(=O)c3c(C)noc3C)CC2)CC1
-4% | C=CCN1C(=O)C(Cc2ccc(OC)cc2)SC1=Nc1ccc(C(=O)O)cc1 (centres undefined)
-13% | CCC(CC)C(=O)Nc1cccc(C(=O)N2CCOCC2)c1
-7% | COC(=O)c1cc(=O)nc2scc(C)n12
? | CCOC(=O)C1Cc2cc3c(cc2C1=O)CC(C(=O)OCC)C3=O (centres undefined)
-6% | CC(c1ccccc1)n1cc(C(=O)NCCN2CCOCC2)nn1 (centres undefined)
-8% | Cc1c(Cl)cccc1N1CC(C(=O)Nc2nccs2)CC1=O (centres undefined)
-16% | Cc1[nH]c2ccccc2c1N=Nc1cccc(C(=O)O)c1
? | CC1=CC(c2ccccc2)n2nc(NS(=O)(=O)c3ccc(C)cc3)nc2N1 (centres undefined)
-7% | CC(C(=O)N1CCN(C)CC1)N1C(=O)c2ccccc2C1=O (centres undefined)
-10% | CCC(C)NC(=O)C(NS(=O)(=O)c1ccc2c(c1)c(=O)n(C)c(=O)n2C)c1ccccc1 (centres undefined)

Next compounds follow.
HPGD block | canonical_smiles
-1% | COC(=O)CCCC1=CC2=C(c3ccccc3)C(=O)C(C)(OC(=O)C3CCCC3)C(=O)C2=CN1CCCCO (centres undefined)
-5% | CCOc1ccc(OCC)c(NC(=O)C2C3C=CC(O3)C2C(=O)NCc2ccco2)c1 (centres undefined)
-8% | CS(=O)(=O)N1CCc2cc(S(=O)(=O)Nc3ccc4c(c3)OCCO4)ccc21
0% | O=C(O)COc1ccc2c(c1)OCCO2
11µM* | c1ccc2[nH]c(SN3CCOCC3)nc2c1
-7% | CCOC(=O)c1ccc(NC2c3ncccc3C(=O)N2Cc2ccc(F)cc2)cc1 (centres undefined)
-20% | Cc1ccc(SC(CC(=O)c2ccc(C)cc2)C(=O)O)cc1 (centres undefined)
? | COC(=O)c1cc(S(=O)(=O)N2CCC(C)CC2)ccc1F
-5% | CCN(CCCNC(=O)C1CCN(S(=O)(=O)c2cnc[nH]2)CC1)c1ccccc1
-14% | Cc1ccc(S(=O)(=O)N(C)Cc2nc(-c3ccncc3)no2)cc1
28µM* | CCOC(=O)c1ccc(NC(=O)CSc2nc(C)cc(=O)[nH]2)cc1
-3% | CN(C)C(=O)C[n+]1cccc(/C=N/O)c1
-5% | CCOc1ccc(N2CC(C(=O)Nc3ccccc3F)CC2=O)cc1 (centres undefined)
-21% | Cc1cc(NC(=O)Cn2c(C)nc3ccccc3c2=O)ccc1Br
? | CCCCNC(=O)CSc1nc2n[nH]c(C)c2c(=N)n1-c1cccc(Cl)c1C
-1% | Cc1cccc(CSc2ncc(CO)n2C)c1
-6% | CCNC(=S)N1CCN(CC(=O)Nc2ccc(Br)cc2)CC1
-16% | O=C(CSc1nc2ccccc2c(=O)n1CCCO)N1CCc2ccccc21
-8% | CC(=O)N1CN(S(=O)(=O)c2ccc(C)cc2)CC1C (centres undefined)
-26% | CCOC(=O)c1nn(-c2ccc(OC)cc2)c(=O)c2c(N)scc12

Structures listed so far that bear a hit mark in HPGD block:
HPGD block | canonical_smiles
11µM* | c1ccc2[nH]c(SN3CCOCC3)nc2c1
28µM* | CCOC(=O)c1ccc(NC(=O)CSc2nc(C)cc(=O)[nH]2)cc1

Further entries follow:
HPGD block | canonical_smiles
-14% | CCOC(=O)c1ccc2c(c1)NC(=O)C(N1CCN(c3ccc(OC)cc3)CC1)S2 (centres undefined)
-20% | NS(=O)(=O)c1ccc(CNC(=O)/C=C/c2ccc(Cl)c(Cl)c2)cc1
-10% | CCc1ccc(N2CC34C=CC(O3)C(C(=O)OC(C)C)C4C2=O)cc1 (centres undefined)
-14% | OCCNc1nc(N2CCN(Cc3ccccc3)CC2)nc2ccccc12
-14% | Cc1ccc(Nc2ncnc3sc(C)c(C)c23)cc1
25µM* | CCOC(=O)N1CCN(CCC(=O)c2ccc(Cl)cc2)CC1
-15% | O=c1oc2ccccc2n1CCc1ccccc1
20µM* | CC1CN=C(N(C(=O)Nc2ccccc2)c2ccc(S(=O)(=O)N3CCOCC3)cc2)S1 (centres undefined)
-5% | Nc1nc(CSC(=S)N2CCOCC2)nc(Nc2ccc(F)cc2)n1
-9% | Cc1ccc(S(=O)(=O)N2CCOCC2)c(C)c1-n1cnnn1
1% | O=c1c(Cl)c(N2CCN(S(=O)(=O)c3ccccc3)CC2)cnn1-c1ccccc1
-9% | COc1ccc(NS(=O)(=O)c2cccc(-c3nnc4n3CCCCC4)c2)cc1
-1% | O=C(NCc1ccc(F)cc1)c1ccc(CS(=O)(=O)Cc2ccc(F)cc2)o1
-13% | CCOc1cc(N2CCOCC2)c(OCC)cc1NC(=O)CCC1CCCC1
-14% | Oc1ccc(/C=N/n2c3ccccc3c3ccccc32)cc1
-1% | CC1CCCC(C)N1CC(O)COCC1COc2ccccc2O1 (centres undefined)
-26% | CCOc1ccc(-c2nc(-c3cccnc3)no2)cc1
-17% | O=C(c1cn(-c2ccccc2)nc1-c1cccs1)N1CCN(c2ccccc2)CC1
-6% | CN(Cc1ccccc1)S(=O)(=O)c1ccc(Cl)c(C(=O)NCc2ccc3c(c2)OCO3)c1
-9% | O=C1Nc2ccccc2/C1=N\c1sc2c(c1C(=O)Nc1ccccc1)CCCC2
-10% | Cc1cccc(OC(=O)c2ccc3nccnc3c2)c1
-5% | COc1ccc(NC(=S)NNC(=O)Cn2nc(C(F)F)cc2C(F)F)cc1
-3% | OC1(Cc2ccn[nH]2)CCCCC1
-30% | CN(C)C=Nc1ncc2c([nH]c3ccccc32)c1C#N
0% | COc1cccc(OC)c1C(=O)Nc1cc(C)on1
-11% | c1ccc(-c2nnc3ccc(N4CCC5(CC4)OCCO5)nn23)cc1
-9% | CC(C)CC(=O)c1c[nH]c(C(=O)NCCCn2ccnc2)c1
-17% | CC(=O)N=C(N)Sc1nc2ccccc2[nH]1
1% | CCOC(=O)N1CCC(NC(=O)CCC(=O)c2ccccc2)CC1
-5% | CCc1nn(-c2cc(Cl)ccc2OC)c2c1C(=O)CCC2
-4% | Cn1c(CN2CCCCC2)nc2cc(NC(=O)c3ccc(F)cc3)ccc21
-19% | CCOC(=O)c1ccc(Nc2nc(C)cc(=O)[nH]2)cc1
-7% | COC(=O)C1=C(C)N(CCc2ccc(OC)c(OC)c2)C(=O)/C1=C\N(C)C
-4% | CCOc1ccccc1N(CC(=O)Nc1ccccc1C(=O)OC)S(C)(=O)=O
-8% | COc1ccc(S(=O)(=O)N(C)CC(=O)Nc2ccccc2C(F)(F)F)cc1
-6% | CC(=O)N(Cc1ccco1)C1(C(=O)NC2CCCC2)CCCCC1
-5% | CCCCn1c(O)c(/C=C2\C=NN=C2c2ccccc2)sc1=S
? | Cc1ccc(-c2cc(C(=O)n3cnc4ccccc43)c3ccccc3n2)cc1C
-10% | COc1ccc2sc(N3C(=O)CC(Cc4cccc(C)c4)C3=O)nc2c1 (centres undefined)
-1% | CC(C)(CO)N=Cc1c(O)[nH]c2ccccc12
-10% | COc1ccc(CN2C=C3C(=O)C(C)(OC(=O)CCc4ccccc4)C(=O)C=C3C=C2c2ccc(C#N)cc2)cc1 (centres undefined)
-15% | CCSC1=C(C#N)C(c2ccc(Cl)cc2)C2=C(CCCC2=O)N1 (centres undefined)
-6% | CCOC(=O)c1[nH]nc(C(=O)c2ccc(Br)cc2)c1O
? | COc1nc(-c2ccc(C)cc2)ccc1-c1noc(-c2ccco2)n1
0% | O=C(O)c1nn2c(c1Br)NC(c1ccccc1)CC2C(F)(F)F (centres undefined)
-14% | CC(CCN)(CCN)[N+](=O)[O-]
-13% | Cc1ccc(NC(=S)NNC(=O)Cn2nc([N+](=O)[O-])cc2C)cc1

In the list so far, these have an aryl thioether with sulfur outside any ring:
HPGD block | canonical_smiles
-8% | NS(=O)(=O)c1cccc(NC(=O)CSc2ccccn2)c1
-3% | COc1ccc(-n2c(Cc3cccn3C)nnc2SCC(=O)N2CCC(C)CC2)cc1
-15% | CCN(CC)S(=O)(=O)c1cc(NC(=O)CSc2nnc(-c3cccs3)o2)ccc1C
-1% | O=c1ccnc(SCc2ccc(Cl)cc2)[nH]1
-6% | CCOC(=O)c1c(NC(=O)CSc2nncs2)sc(C)c1-c1ccccc1
-17% | Cc1noc(C)c1CSc1cc(C)c2ccccc2n1
-18% | O=C(O)CCCCn1c(SCC(=O)Nc2ccccc2C(F)(F)F)nc2ccsc2c1=O
-7% | O=C(O)c1ccccc1CSc1ncn[nH]1
-16% | O=C(/C=C/c1ccccc1)NCCSc1ccc(Cl)cc1
-10% | Cc1cc(C)c2c(=O)[nH]c(SCC(=O)c3ccc(C(C)C)cc3)nc2n1
-20% | Cc1ccc(SC(CC(=O)c2ccc(C)cc2)C(=O)O)cc1 (centres undefined)
28µM* | CCOC(=O)c1ccc(NC(=O)CSc2nc(C)cc(=O)[nH]2)cc1
? | CCCCNC(=O)CSc1nc2n[nH]c(C)c2c(=N)n1-c1cccc(Cl)c1C
-1% | Cc1cccc(CSc2ncc(CO)n2C)c1
-16% | O=C(CSc1nc2ccccc2c(=O)n1CCCO)N1CCc2ccccc21

The list is partial, so the mix of outcomes need not match the whole.
